# Assay outcomes deposited in PubChem BioAssay by several laboratories.
# T cruzi repl = T. cruzi replication inhibition; T. cruzi beta-gal in NIH3T3, luminescence, 90 h; inhibition, % (no concentration beside the values); 300,000 tested, 1.4% active; AID 1885;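 active = mean inhibition across valid replicates above about 55%, limit read from the data; inconclusive = mean below that limit but half or more replicates reach it; inactive = mean below it, under half of replicates reach it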;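 also: signal also drops with host cell toxicity which is not excluded here; 0% = plate median of DMSO wells and 100% = zero luminescence signal; higher percent means less beta-gal luminescence so fewer parasites; stock transfer was 50 nL into about 50 µL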
# B2AR ag = agonists of human beta-2 adrenergic receptor inducing internalization; P07550; Am2.2-beta2AR cells, FAP receptor internalization, flow cytometry; reference of the scale not given here; response, % (no concentration beside the values); 340,000 tested, 0.43% active;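 active = response above a set limit, near 3 SD of response in nonfluorescent compounds, cut at about 42% in these data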;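 also: stock transfer was 100 nL into about 11 µL; a reference agonist was the positive control; negative values mostly stem from fluorescent compounds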
# A1 inh = inhibitors of the anti-apoptotic protein A1, read as caspase activation; 330,000 tested, 0.066% active; caspase activation, % (concentration not given with the values); MEF A1-2A-BIM cells, Caspase-Glo 3/7 luminescence, 3 h; percent of clofoctol response, vehicle zero;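 active = over half of replicate activation scores above 10%, or exactly half above 10 with the replicate mean above 10; inconclusive = replicate mean below 10 yet half the replicates above 10; inactive = over half of replicates below 10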;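 also: wells of about 30 µL received 50 nL stock; many hits fall short of the cut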
# Calb FLC = affects C. albicans growth with fluconazole. growth inhibition, % (test concentration not listed). AID 1979. C. albicans CaCi-2 (fluconazole-resistant clinical isolate) + fluconazole, Alamar Blue growth, 48 h. 300,000 tested, 0.57% active;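 active = most replicates above 75%; inconclusive = exactly half above 75%; inactive = most below 75%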;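 also: all wells also contain fluconazole at 8 µg/ml as a sub-toxic cotreatment; 0% = median of DMSO wells and 100% = median of geldanamycin control wells; wells of about 8 µL received 7.5 nL stock; the first replicate is given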
# ALR H2O2 inh = human ALR oxidase inhibition via reduced H2O2; purified ALR, DTT oxidation, H2O2 HRP-luminol luminescence; P55789; inhibition, % (no concentration beside the values); 290,000 tested, 3.8% active;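 active = mean and each replicate at 75% or more; inconclusive = only one of the two met; inactive = neither met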;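 also: stock transfer was 7.5 nL into about 7.5 µL; 0% = neutral wells and 100% = wells with inactivated enzyme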
# Ecoli rRNA inh = selective bacterial rRNA inhibition in E. coli; E. coli WT GFP vs humanized-ribosome RFP mutants, fluorescence, 24 h; active compounds read low; DMSO median 0, no signal -100; GFP signal change (wild-type ribosome), % (concentration not given with the values); 350,000 tested, 1.6% active; AID 720706;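 active = significant combined selectivity score with lowered wild-type GFP, culture density cut under 30%, mutant RFP and density less affected; inactive = any of these conditions unmet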; also: one replicate is shown; some compounds called inactive have numbers as strong as hits
# Beta apoptosis = blocks beta cell apoptosis; 300,000 tested, 0.8% active; protection from apoptosis, % (no concentration beside the values); INS-1E cytokine-induced death, ATP luminescence, 48 h; percent of positive-control rescue, neutral wells zero;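 active = all replicates at 75% or more, or half of them and the mean; inconclusive = half reach 75% but not the mean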;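 also: 0% = cytokine-treated negative control wells and 100% = positive control rescue; higher means more ATP so stronger rescue from cytokine killing; wells of about 40 µL received 100 nL stock; the first replicate is given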
# LANA-H2B inh = blocks KSHV LANA binding to histone H2A/H2B. cell-free LANA-H2A/H2B peptide, fluorescence polarization. 320,000 tested, 0.6% active. inhibition, % (no concentration beside the values); in the data active = inhibition mostly above about 10%, no sharp cut-off; inactive = mostly below about 6.7%;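 also: stock transfer was 7.5 nL into about 10 µL; 0% = median of vehicle wells and 100% = median of positive control wells; one replicate is shown; the record names a cut of 25% in any replicate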
# Target sequence (Q9QR71 whole entry, looked up): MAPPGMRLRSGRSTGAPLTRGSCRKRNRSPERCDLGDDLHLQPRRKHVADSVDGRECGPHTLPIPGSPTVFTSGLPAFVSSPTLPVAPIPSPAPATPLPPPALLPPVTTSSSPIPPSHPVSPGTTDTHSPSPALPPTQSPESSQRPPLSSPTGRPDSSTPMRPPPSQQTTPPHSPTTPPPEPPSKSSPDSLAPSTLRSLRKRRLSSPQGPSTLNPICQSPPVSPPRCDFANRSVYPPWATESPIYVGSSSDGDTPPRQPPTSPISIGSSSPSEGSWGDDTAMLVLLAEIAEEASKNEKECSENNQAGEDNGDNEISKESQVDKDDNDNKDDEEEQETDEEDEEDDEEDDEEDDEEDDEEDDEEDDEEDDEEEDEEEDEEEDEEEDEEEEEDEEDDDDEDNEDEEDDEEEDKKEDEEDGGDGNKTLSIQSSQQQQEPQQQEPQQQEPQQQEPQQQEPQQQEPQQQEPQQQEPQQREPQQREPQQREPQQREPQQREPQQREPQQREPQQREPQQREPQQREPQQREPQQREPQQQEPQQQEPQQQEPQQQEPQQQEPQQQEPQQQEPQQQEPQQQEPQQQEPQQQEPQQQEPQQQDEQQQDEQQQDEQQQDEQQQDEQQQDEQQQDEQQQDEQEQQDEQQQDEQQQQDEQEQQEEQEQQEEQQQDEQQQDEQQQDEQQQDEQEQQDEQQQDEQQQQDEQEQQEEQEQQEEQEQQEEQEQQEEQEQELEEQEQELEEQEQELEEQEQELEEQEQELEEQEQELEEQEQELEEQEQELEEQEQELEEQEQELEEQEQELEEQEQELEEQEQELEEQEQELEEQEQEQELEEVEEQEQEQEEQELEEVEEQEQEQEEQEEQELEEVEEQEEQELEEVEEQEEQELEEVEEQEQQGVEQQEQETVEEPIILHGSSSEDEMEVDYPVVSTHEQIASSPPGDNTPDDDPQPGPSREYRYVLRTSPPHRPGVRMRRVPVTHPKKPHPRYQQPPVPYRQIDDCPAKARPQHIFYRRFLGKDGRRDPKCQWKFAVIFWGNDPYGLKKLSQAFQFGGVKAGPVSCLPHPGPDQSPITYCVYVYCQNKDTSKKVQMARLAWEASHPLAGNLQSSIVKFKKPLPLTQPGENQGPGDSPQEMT
# Ecoli rRNA inh OD600 = recorded beside Ecoli rRNA inh, whose call it bears; OD600 change, %; measured here: OD600 growth;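 optical density of the mix in the first replicate; 0 = DMSO median and -100 = no signal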
# Ecoli rRNA inh RFP = recorded beside Ecoli rRNA inh, whose call it bears; RFP signal change, %; measured here: RFP humanized mutant strains;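 first replicate; 0 = DMSO median and -100 = no signal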
# * marks the source's active call; other numbers are inactive results; ? = inconclusive; . = no result given; & = joins results of further samples. Some of the compounds tested. The share of hits here may be higher or lower than overall.
SMILES,T cruzi repl,B2AR ag,A1 inh,Calb FLC,ALR H2O2 inh,Ecoli rRNA inh,Ecoli rRNA inh OD600,Ecoli rRNA inh RFP,Beta apoptosis,LANA-H2B inh
Cc1cc(CNC(=O)CC2C(=O)NCCN2Cc2ccccc2C(F)(F)F)on1 (centres undefined),-2,2,-0.7,-13,-14,9,-2,0.5,3,4.1
Cc1noc(C)c1CSCC(=O)Oc1ccc(N(C)S(=O)(=O)c2ccc(Cl)cc2)cc1,-12,-4,-1.6,0,1,0,2,0.4,-3,-2.5
O=C(Nc1cccc(S(=O)(=O)N2CCCCCC2)c1)c1ccc2c(c1)OCO2,-21,1,0.8,0,20,-9,-10,3.4,6,-3.6
Cc1ccc(NNC(=O)c2c(F)cccc2Cl)cc1Cl,.,2,-0.7,4,99*,-33*,-2.5*,-1.2*,7,11
COc1ccc(S(=O)(=O)N2CCCCCC2)cc1C(=O)N(C)CC(=O)Nc1ccccc1C(F)(F)F,.,1,0.8,.,-8,-8,-8,0.4,2,5.7
O=C(NCCN1CCOCC1)c1ccc(CS(=O)c2ccccc2Cl)o1 (centres undefined),4,5,-1.1,10,49,7,5,0.3,-3,-5.7
Cc1ccc(C2=NN(Cc3nnc(-c4ccccc4)o3)C(=O)SC2)cc1,9,-23,0.0,-15,-10,.,.,.,9,2.0
O=C(NC(=S)N1CCN(Cc2ccccc2)CC1)c1ccccc1,-6,0,-0.9,-4,1,.,.,.,.,-4.9
CC1=CC(=NOC(=O)/C=C/c2ccccc2)C=C(C)C1=O,-17,12,-3.1,7,59,.,.,.,-5,1.2
Cc1c(NC(=O)C(C)N2CC(C)OC(C)C2)c(=O)n(-c2ccccc2)n1C (centres undefined),-8,-1,1.0,7,-4,.,.,.,-1,0.0
C=CCn1c(=NC(=O)c2ccc(S(=O)(=O)N3CCc4ccccc4C3)cc2)sc2cc(S(N)(=O)=O)ccc21,27,5,-0.7,?,-2,-2,7,6.3,26,2.5
Fc1cccc(-c2cc3nc(-c4ccccc4)cc(N4CCC5(CC4)OCCO5)n3n2)c1,33,-1,-0.6,3,-1,.,.,.,0,0.8
Cc1cccc(-c2noc(CN(C)C(=O)COc3ccccc3)n2)c1,5,3,0.2,-5,1,-8,-11,2.6,-3,5.6
Cc1ccc(C(=O)NC2CC(C)(C)NC(C)(C)C2)cc1S(=O)(=O)N1CCCCC1,-7,0,0.4,-1,.,12,8,5.4,1,.
COC(=O)[C@H](CCSC)NC(=O)Cn1ccc(NC(=O)OCc2ccccc2)nc1=O,.,2,1.1,.,1,8,13,-0.7,-14,-2.8
COc1ccccc1NC(=O)C(=N\O)/C(C)=N/O,15,1,-0.1,-6,17,.,.,.,-7,4.3
COCCCC1CCN(C(=O)C2CCC(=O)N(CCc3ccccc3)C2)CC1 (centres undefined),-4,3,-0.8,8,-1,4,11,-0.5,0,3.4
CCn1nc(C(=O)NNC(=O)c2cc(Cl)ccc2OC)c2ccccc2c1=O,.,-22,-1.5,.,0,-3,-4,-0.5,16,0.6
COc1ccc(C(=O)Nc2cccc(C(=O)NCc3ccccc3)c2)cc1,-6,3,-0.7,58,.,.,.,.,-7,-4.6
COC(=O)Cn1cc(C(=O)C(C)(C)C)c2ccccc21,-11,4,0.5,-1,-2,5,6,-2.7,-12,1.7
O=C(O)c1ccc(S(=O)(=O)c2ccc3c(c2)C(=O)N(c2ccccc2[N+](=O)[O-])C3=O)cc1,-11,-10,0.9,-1,-4,10,16,0.3,6,3.9
Cc1ccc(SCCNC(=S)Nc2ccccc2)cc1,-8,-6,-0.1,-15,-7,.,.,.,0,2.9
CCSC1(SCC)N=C(N)C2(C#N)C(c3ccccc3)NC(C)=CC12C#N (centres undefined),12,9,0.7,-8,11,.,.,.,-4,-2.2
CCOCC(=O)Nc1ccc(S(=O)(=O)N2CCOCC2)cc1,-5,10,0.5,6,3,.,.,.,1,-3.5
O=C1Nc2ccccc2C1=Nc1cccc(Cl)c1,-9,-1,0.3,-22,-12,-5,-4,15,.,2.9
CCCCN(C)CCN1C(=O)C2C(C(=O)Nc3cccc(OC)c3)C3C=CC2(O3)C1C(=O)NC1CCCCC1C (centres undefined),2,5,-0.2,6,-2,5,-4,0.3,1,5.0
Cc1sc2nc(SCC(N)=O)n(C)c(=O)c2c1C,1,-4,-0.3,-4,2,.,.,.,-3,1.2
CC(CCc1ccc(O)cc1)NCc1ccc(Br)cc1 (centres undefined),9,12,0.8,-4,.,23,10,2.3,3,-4.8
NCCCS(=O)(=O)O,-16,3&0,2.5&-0.3,-4,1&-29,6,12,-0.3,1&-10,8.7&3.0
O=C(CSc1ncccc1C(=O)O)NCc1ccc(F)cc1,10,-1,-0.6,2,-15,.,.,.,-7,-2.8
Cc1cc(NS(=O)(=O)Cc2ccccc2)no1,2,6,0.0,-12,.,.,.,.,.,-7.0
CC1(C)Cc2ccccc2C(NNC(=O)c2ccccc2)=N1,-10,-3,0.5,-22,-2,-2,6,-3.5,-4,1.6
Cc1cc(=O)n2[nH]c(-c3ccccc3)cc2n1,-11,1,-1.8,7,-5,.,.,.,0,4.1
O=C(c1ccc(=O)n(Cc2ccc(Cl)c(Cl)c2)c1)N1CCOCC1,-3,-4,-0.3,-11,6,.,.,.,-11,-1.1
CC(C)N(Cc1nccn1C)C(=O)c1cc(COc2ccc(-n3cncn3)cc2)on1,-3,-2,1.6,6,.,0,-1,3.6,-3,1.0
CN(C)c1nc(N)c(C(=O)N=C(N)N)nc1Cl,21,-9,0.0,-3,-2,0,0,-2.3,.,-2.2
Nc1cc2nc3ccccc3oc-2cc1=O,.,-137,-0.1,.,11,.,.,.,.,7.0
Cc1cccc(NC(=S)NNC(=O)c2ccccc2Br)c1,-12,0,-1.4,-4,?,.,.,.,6,4.6
O=C(O)c1cc(O)ccc1NC(=O)c1cccc2ccccc12,2,69*,-0.8,7,96*,4,1,1.3,-4,-1.6
Cc1ccc(NC(=O)c2ccc3nc(N4CCOCC4)sc3c2)c(Cl)c1,-6,8,1.1,-4,-6,11,2,-0.6,2,-4.7
COC(=O)c1sc(NC(=O)CSc2nc3nc(C)cc(C)n3n2)c(C(=O)OC)c1C,-3,-2,0.2,-4,-6,2,-3,-3.7,-2,0.3
O=C(CNC(=O)c1ccccn1)N/N=C/c1ccccc1,.,-3,0.1,-4,5,.,.,.,-1,-1.8
CCN1C(=O)c2ccc(C(=O)Nc3ncc(C)s3)cc2C1=O,-5,-5,-3.7,-5,-4,-5,5,-3.4,-4,-1.7
Cc1cccc(N2CCN(C(=O)[C@H](C)N3C(=O)C4CC=CCC4C3=O)CC2)c1C (some centres undefined),.,-6,-0.3,.,2,10,-33,-4.9,3,-3.0
CCOC(=O)N1CCN(Cc2nc(-c3cccs3)no2)CC1,-16,6,-0.8,6,-8,11,0,-3.2,-1,-4.5
O=C(CCC1=NS(=O)(=O)c2ccccc2N1)NC1CCCCCCC1,-3,7,-0.5,-3,0,.,.,.,.,-1.1
CCc1ccc(-c2cc(C)no2)cc1S(=O)(=O)NCc1ccccc1OC,3,-13,-0.8,9,1,-11,-29,-5.0,1,-3.5
CCOc1ccc(CCNS(=O)(=O)c2cccc3nsnc23)cc1OCC,-24,-2,0.6,26,-4,.,.,.,2,2.2
Cc1cc(C)n2nc(C(=O)OCC(=O)N(CC(C)C)C3CCS(=O)(=O)C3)nc2n1 (centres undefined),.,-6,-1.7,.,-1,8,12,-5.8,-7,2.3
Cc1cc(C(=O)c2cnc(/N=C/N(C)C)s2)cc(C)c1O,-5,-11,-0.3,-1,-44,.,.,.,.,-3.2
CSc1nc2ccccc2n1CC(=O)Nc1cc(C(F)(F)F)ccc1N1CCOCC1,12,-7,0.1,9,-6,.,.,.,-4,-1.3
CCOC(=O)Cn1c(CCC(=O)O)ccc1-c1ccc(F)cc1,8,-1,-0.1,-5,12,2,6,2.2,-2,-2.9
CC(C)(C)Nc1c(-c2ccc(O)cc2)nc2ccc(Cl)cn12,-4,4,0.5,25,-7,24,19,6.8,2,-7.0
Cc1ccc2c(CSc3nnc4ccccn34)cc(=O)oc2c1C,4,5,-0.9,3,2,3,-2,-4.0,-4,2.8
COc1cc(NC(=O)C2=C(C)OCCS2)c(Cl)cc1C(=O)NCCN1CCN(C)CC1,24,4,1.8,12,-7,2,2,0.2,0,6.5
CCN1CCCC1CNS(=O)(=O)c1ccc(Cl)c(C(F)(F)F)c1 (centres undefined),43,-1,0.6,9,-4,23,20,0.6,-4,-115
C/C(=N\NC(=O)c1ccc(Br)cc1)c1cccnc1,-16,-8,0.7,3,44,.,.,.,0,3.5
C/C(=N\NC(=O)CC1N=C(Cc2ccccc2)NNC1=O)c1ccccc1 (centres undefined),7,-7,0.1,1,3,.,.,.,7,12
COc1ccc(N2C(=O)CCC(C(=O)N3CCCCCC3)C2c2ccc(OC)c(OC)c2)cc1 (centres undefined),-3,3,-0.7,8,-13,.,.,.,2,1.3
CCOC(=O)c1cnc2c(c(C)nn2CC)c1NCCN1CCOCC1,18,0,2.0,35,-3,.,.,.,3,1.6

# The list continues:
SMILES,T cruzi repl,B2AR ag,A1 inh,Calb FLC,ALR H2O2 inh,Ecoli rRNA inh,Ecoli rRNA inh OD600,Ecoli rRNA inh RFP,Beta apoptosis,LANA-H2B inh
CCC(C)(C)NC(=O)C(c1ccc(C)cc1)N(Cc1ccco1)C(=O)Cn1nnc2ccccc21 (centres undefined),1,2,-0.8,6,-2,.,.,.,0,1.7
CCCCn1nnnc1SCC(=O)Nc1cccc(C)n1,23,1,-0.4,3,-9,.,.,.,-7,4.5
CCn1c(C)cc(C(=O)COC(=O)c2cccnc2SC)c1C,.,4,-14,.,0,5,-1,4.2,-8,-1.2
CSCc1nnc(NC(=O)c2ccc(S(=O)(=O)N3CCCCC3C)cc2)o1 (centres undefined),-1,4,0.3,9,7,-35,-66,-7.3,1,-2.8
Cn1c2c(c3ccccc31)CC/C2=N\O,4,-8,0.1,-2,14,.,.,.,-2,2.1
O=C(O)CCS(=O)(=O)c1cc(Br)cc2c1N(C(=O)C1CC1)CC2,-14,-2,0.9,-22,-11,12,14,8.4,-2,1.2
Cc1cccc(C)c1NC(=O)COC(=O)COc1ccc2c(C)cc(=O)oc2c1,0,1,-0.4,-2,1,14,4,-1.4,-3,2.4
Cn1ccnc1C(O)c1ccc(OCc2ccccc2)cc1 (centres undefined),4,8,1.2,-2,-3,.,.,.,-4,-1.7
O=c1sc2ccccc2n1CCCOc1ccccc1,-2,-3,1.0,-8,-12,.,.,.,1,2.1
CCCn1c2ccccc2c2cnn(CC(=O)NCCCN3C(C)CCCC3C)c(=O)c21 (centres undefined),7,-6,0.8,0,-1,5,1,-1.4,4,2.1
O=C(Nc1ccc(N2CCOCC2)cc1)C1CCN(S(=O)(=O)Cc2ccccc2)CC1,-9,-5,-1.4,-3,-2,.,.,.,-6,-8.9
CCCc1cc(C(=O)Nc2cccc(C(C)=O)c2)no1,-1,9,-1.9,-10,-15,-3,6,-1.1,-5,0.7
COC(=O)c1sc2nc(N)c(C#N)cc2c1N,2,2,0.4,4,-12,.,.,.,0,3.8
